Sa RN4220 lethal: S. aureus RN4220 growth inhibition | OD600, 16 h | inhibition, % (concentration not given with the values) | 0.33% of 330,000 active;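 active = z-score of -3 or lower and OD600 up to 0.18 on both plates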;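 also: plate controls were untreated cells for no effect and reference antibiotic for full effect; stock transfer was 100 nL into about 80 µL; one replicate is shown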
ugtP null kill: growth inhibition of S. aureus ugtP deletion strain | S. aureus RN4220 ugtP deletion, OD600 growth, 16 h; some inactives read as strong as hits | growth inhibition, % (concentration not given with the values) | 0.54% of 330,000 active | AID 1259309;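 active = z-score under -3 and OD600 up to 0.15 on both plates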;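 also: plate controls were untreated wells for no effect and antibiotic for full effect; wells of about 80 µL received 100 nL stock; the first replicate is given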
BJeLR viability: kills HRASV12-expressing BJeLR cells | BJeLR (HRASV12) viability, CellTiter-Glo ATP luminescence, 48 h; reference of the scale not given here | inhibition, % (test concentration not listed) | 0.17% of 300,000 active;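 active = replicate mean above 50%; inconclusive = above 50% but judged a plate artefact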;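 also: 50 nL library stock added to about 25 µL; numbers are from one replicate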
PrP 5UTR inh: inhibition of PrP 5' UTR reporter expression. cell-based PrP 5' UTR mRNA reporter, plate reader. inhibition, % (concentration not given with the values). 0.35% of 340,000 active;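 active = every replicate at 50% or more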;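 also: 0 = median of the neutral control wells; tested in H4 reporter cells; numbers are from one replicate; inactives centre near -14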
Bead autofluor: flagged as autofluorescent in microsphere protease counterscreen; compound autofluorescence counterscreen, microsphere flow cytometry; hits give high values; fluorescence intensity (test concentration not listed); 3.1% of 360,000 active;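 active = at least 3 SD above the mean of all compounds, about 16000 in these data; inconclusive = too few beads counted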;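 also: 100 nL of 1 mM stock went into each well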
Mtb hypoxia inh: Mtb hypoxia fluorescent reporter inhibition; M. tuberculosis hypoxia-regulated fluorescent reporter, fluorescence; fluorescence inhibition, % (no concentration beside the values); 0.1% of 300,000 active; AID 1159583;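 active = 35 to 45% if threefold the growth effect, above 45% if 1.5-fold the growth effect; inactive = the rest, general growth blockers included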;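 also: wells of about 50 µL received 100 nL stock; 0% = vehicle wells and 100% = reference inhibitor wells; whole bacteria with a GFP reporter of the hypoxia response; strong numbers were not always called active; many hits fall short of the cut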
Mtb hypoxia inh growth: second read-out of Mtb hypoxia inh, no call of its own (marks repeat the call); growth inhibition, %; measured here: M. tuberculosis growth (absorbance);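 0% = vehicle and 100% = reference antibiotic; read after six days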
* marks the source's active call; other numbers are inactive results; ? = inconclusive; / = no result given.

The line under a structure holds: Mtb hypoxia inh growth, BJeLR viability, Sa RN4220 lethal, PrP 5UTR inh, Mtb hypoxia inh, Bead autofluor, ugtP null kill
> CN(C)CC1CCCCC1OC(=O)Cc1ccc(Cl)c([N+](=O)[O-])c1 (configuration not stated)
  8, 1, 4.0, -30, 8, 3907, 4
> O=C(COc1ccc(C=NNC(=O)c2ccccc2O)cc1)Nc1ccccc1
  4, /, -0.7, /, 0, /, 6
> CCn1c(Cc2ccccc2)nnc1SCC(=O)c1c(N)n(C2CC2)c(=O)[nH]c1=O
  5, /, 5.9, -25, 1, 2912, 9
> O=C(c1cccc(F)c1)N1CCN(C(=O)C(c2ccccc2)c2ccccc2)CC1
  -3, -2, 2.0, -3, 5, 3816, 3
> Cc1ccc(/C=N/NC(=O)COc2ccc(Cl)c(C)c2)o1
  /, 2, /, -21, /, 3925, /
> Cc1cc(C(C)(C)C)oc1C(=O)N(CC(=O)NC1CCCC1)Cc1ccc(Cl)cc1
  1, -1, -2.6, -21, 8, 7530, 6
> O=C(NCc1ccc2c(c1)OCO2)c1nn(-c2ccccc2)c(=O)c2ccccc12
  11, -4, 3.1, -4, 10, 21677*, -5
> O=C(CSc1nc(-c2ccc(F)cc2)cs1)N1CCOCC1
  3, 3, 4.0, -31, -2, 5748, -6
> O=C(Nc1ccc(N2CCN(C(=O)c3ccccc3)CC2)cc1)c1cc2ccccc2o1
  /, /, 0.2, -21, /, 4950, -13
> O=C(Nc1ccccc1)C1CC(=O)N(C2CCCCC2)C1 (configuration not stated)
  /, /, 0.1, -2, /, 4118, 1
> NC(=O)c1cc(-c2ccccc2)nc(Oc2ccccc2)n1
  /, -7, 3.4, 2, /, 3733, -2
> Cc1ccc(CNC(=O)CCNC(=O)c2ccc(Br)o2)cc1
  6, -1, -0.3, -36, 6, 11307, 7
> Cc1ccc(-n2ncc3c(NCc4ccccc4)ncnc32)cc1
  5, 10, -6.8, -90, 7, 2961, -7
> CC(=O)Nc1cccc(NC(=O)CSc2nc(=O)n(CCN3CCOCC3)c3c2CCC3)c1
  -4, 12, 4.2, -6, 7, 4320, 7
> O=C(CCN1C(=O)C2CCCCC2C1=O)NNC(=O)c1cccc(Cl)c1 (configuration not stated)
  -5, -4, 5.3, -2, -1, 2530, 1
> CCCOC(=O)C1=C(C)NC2=C(C(=O)CCC2)C1c1cccs1 (configuration not stated)
  7, 7, 3.2, -26, 9, 6082, 0
> CC(C)(C)c1ccc(-c2nnc(SCC(=O)NC3CCS(=O)(=O)C3)n2N)cc1 (configuration not stated)
  -3, -2, 2.3, -23, -8, 2551, 0
> Cc1cc2cc(CNC(=O)c3cccc([N+](=O)[O-])c3)ccc2n1C
  10, 8, -3.1, -24, 7, 4361, -1
> Cc1nc2ncnn2c(C)c1CCC(=O)NCCc1ccccc1
  3, 5, 6.6, -36, 5, 3259, 9
> CC(C)(C)c1ccc(OCC(O)CN2CCCC2)cc1 (configuration not stated)
  7, 4, 2.2, -12, 7, 4226, 15
> O=C(CCS(=O)(=O)c1cc(Br)cc2c1N(C(=O)C1CC1)CC2)NCC1CCCO1 (configuration not stated)
  /, 1, -3.1, -18, /, 4808, 8
> CCNc1nc(N)nc(Oc2ccc(OCC)nn2)n1
  -1, 2, 0.1, -11, -3, 5695, -7
> COc1ccc(NC(=O)C2CCN(C(=O)c3ccccc3)CC2)cc1OC
  -12, -7, 3.7, -25, -3, 6764, 9
> N#Cc1c(Nc2ccc(F)cc2)sc(C(=O)c2ccc(F)cc2)c1N
  -4, 9, 4.3, 4, -1, 13049, -9
> O=C(CCC1CCCN(C(=O)c2ccc3[nH]ccc3c2)C1)N1CCN(c2ccccn2)CC1 (configuration not stated)
  1, 6, 0.8, -17, 2, 3359, 0
> O=C(NNS(=O)(=O)c1ccc(F)cc1)c1ccc(O)cc1
  -6, 5, 3.9, -22, 1, 3231, 7
> CC(C)(C)NC(=O)NC(=O)CN1c2cccc3cccc(c23)S1(=O)=O
  6, -2, 8.6, 1, -7, 3819, 4
> COc1ccc(C(=O)N/C(=C\c2ccc([N+](=O)[O-])cc2)C(=O)NC(CCSC)C(=O)O)cc1 (configuration not stated)
  11, 0, 1.1, -2, 5, 2637, 6
> OCCN(Cc1ccccc1)Cc1ccccc1Cl
  2, 9, 6.2, -29, 7, 23592*, -11
> O=C(c1ccc(CNS(=O)(=O)c2cccc(C(F)(F)F)c2)cc1)N1CCOCC1
  -8, -2, 4.7, -8, -4, 22700*, 0

Next entries
The line under a structure holds: Mtb hypoxia inh growth, BJeLR viability, Sa RN4220 lethal, PrP 5UTR inh, Mtb hypoxia inh, Bead autofluor, ugtP null kill
> Cc1noc(C)c1CSc1nnc(-c2cccnc2)n1C1CCCCC1C (configuration not stated)
  8, 0, 5.7, -17, 8, 3364, 5
> O=C(CC(C(=O)O)c1ccc(Cl)cc1Cl)c1ccc(Cl)cc1 (configuration not stated)
  1, 17, 52, -16, -16, 3985, 6
> Cc1cc(NC(=O)C2CCN(S(=O)(=O)c3cnc[nH]3)CC2)ccc1Br
  /, -1, -1.5, -8, /, 4735, 9
> COc1ccc(OC)c(S(=O)(=O)N2Cc3ccccc3CC2C(=O)O)c1 (configuration not stated)
  -4, 4, -3.0, -5, 4, ?, 7
> CC1CC=CC2C1C(=O)N(Cc1ccccc1)C2c1ccoc1 (configuration not stated)
  -8, /, 17, /, 5, /, 6
> CCN(CC)CCN1C(=O)C(=O)C(=C(O)c2c(C)[nH]c(C(=O)OC)c2C)C1c1ccccc1OC (configuration not stated)
  2, /, 6.2, /, 6, /, -3
> O=C(NCCC1=CCCCC1)C1CCN(S(=O)(=O)c2ccccc2C(F)(F)F)CC1
  4, 6, -2.7, -1, -2, ?, -7
> COc1cc(/C=C/C(=O)OCC(=O)Nc2sc3c(c2C#N)CCC(C)C3)ccc1OCC#N (configuration not stated)
  5, -3, 8.5, -35, 7, 4746, -7
> COc1cc(/C=C2\C(=N)N3N=C(S(C)(=O)=O)SC3=NC2=O)ccc1OC(=O)c1ccco1
  21, 1, 8.0, -30, 18, 5473, 5
> CCc1cc(C(=O)N2CCCC(C(=O)c3ccc(OC)c(F)c3)C2)n(C)n1 (configuration not stated)
  -2, 8, 3.5, -2, 7, 4375, 10
> CCOC(=O)N1CCN(CCc2ccccc2)CC1
  4, 4, 3.0, -22, 12, 3798, 3
> Cc1ccccc1C(=O)N1CCN(C(c2ccccc2)c2ccccc2)CC1
  6, 10, -4.0, -7, 3, 3922, 32
> Cc1ccc(NC(=O)c2ccco2)c(NC(=O)C2CCCO2)c1 (configuration not stated)
  3, 0, 7.6, -18, -12, 2632, -4
> O=C(CSc1ccccc1)Nc1cccc(S(=O)(=O)N2CCCCC2)c1
  3, /, 4.5, -22, 0, 7735, 4
> CC1=C(C(=O)OC(C)C)C(c2ccccc2Cl)CC(=O)N1 (configuration not stated)
  /, -2, 2.1, -22, /, 5021, -5
> NC(=O)C1CCN(C(=O)C(=O)c2cn(CC(=O)N3CCCCCC3)c3ccccc23)CC1
  -15, 8, -4.2, -25, -2, 7217, -7
> Cc1ccccc1OCCC(=O)OCC(=O)NC(=O)c1ccccc1
  -8, -14, 2.6, -26, -10, 4272, 8
> CC(C)OC(=O)c1cccnc1SCc1cc(=O)n2ccccc2n1
  0, 4, 4.1, -1, -2, 24425*, 2
> Cc1cc(C)c(C(=O)COc2cccnc2[N+](=O)[O-])cc1C
  10, /, 11, -14, 2, 3195, 0
> c1ccc(CN2CCOCCOCCOCCOCCOCCOCC2)cc1
  2, 0, 4.5, -8, -1, 2583, -1
> O=C(c1cccc([N+](=O)[O-])c1)N1CCN(C(=O)c2ccco2)CC1
  3, -1, 5.0, -15, -1, 4784, -1
> Cc1cc(Cl)ccc1OCCCC(=O)NCCN1C(=O)S/C(=C\c2cccnc2)C1=O
  5, 4, 21, -17, 6, 2863, -16
> CCN1C(=O)C(=O)N(CC(=O)Nc2ccccc2OC(F)F)C1=O
  -3, /, 4.1, -16, -4, 8021, 10
> COC(=O)c1c(NC(=O)Cc2ccccc2)sc(C)c1C
  13, 2, 6.7, -3, 8, 2470, 15
> CCCCCCP(=O)(O)c1ccccc1
  5, 3, -0.6, -37, 18, 9498, 4
> Cc1nc(SCC(=O)NCCN2C(=O)CSC2=O)nc(C)c1C
  4, /, 4.4, -12, 3, 6095, 7
> CCN(CC)S(=O)(=O)c1cccc(NC(=O)COC(=O)CCc2nc3ccccc3s2)c1
  -3, 7, 5.1, -24, -16, 11545, 1
> COc1ccc(C(=O)c2ccccc2)c(OCC(=O)N(C)C)c1
  9, 6, 2.5, -110, 2, 2479, 0
> NS(=O)(=O)c1cc(C(=O)OCC(=O)NC2CCCCCCC2)ccc1Cl
  5, /, 2.0, -7, 5, 5723, 4
> CC(=O)n1cc([C@@H]2C=C(C(=O)N3CCN(Cc4ccc5c(c4)OCO5)CC3)O[C@H](OCc3ccc(CO)cc3)C2)c2ccccc21
  /, -20, /, 9, /, 4057, /

Some values from the list:
In Bead autofluor, COc1ccc(C(=O)c2ccccc2)c(OCC(=O)N(C)C)c1 shows 2479
In PrP 5UTR inh, CCOC(=O)N1CCN(CCc2ccccc2)CC1 shows -22

Going on with the list.
The line under a structure holds: Mtb hypoxia inh growth, BJeLR viability, Sa RN4220 lethal, PrP 5UTR inh, Mtb hypoxia inh, Bead autofluor, ugtP null kill
> Cc1ccc(-c2nc3ccccc3n2C)o1
  /, 15, 5.6, -86, /, 3876, -5
> COc1cc(CCCN2C(=O)C(=O)NCC2Cc2ccc(O)cc2)cc(OC)c1OC (configuration not stated)
  8, /, 10, /, 20, /, 2
> CN(C)C(=O)O/N=C(\N)COc1ccc(C(C)(C)C)cc1
  /, 0, /, -28, /, 5983, /
> NC(=O)c1nsnc1-c1ccccc1O
  /, 0, /, -20, /, 7920, /
> C=CC(C)(C)c1c(O)c(CC=C(C)C)c(O)c2c(=O)c3ccc(O)c(O)c3oc12
  /, 13, 14, -8, /, 5373, 40
> COc1ccc(C2/C(=C(/O)c3ccc4c(c3)CC(C)O4)C(=O)C(=O)N2CCCN2CCOCC2)cc1 (configuration not stated)
  -3, -4, 1.9, -17, 2, 3878, 5
> COc1ccc(C(=O)N2CCCN(C)CC2)cc1S(=O)(=O)N(C)Cc1ccccc1
  -4, /, 5.3, -8, -5, 2958, 7
> CN1C2c3ccccc3C3C4c5ccccc5C(C31)C(C2[N+](=O)[O-])N4C (configuration not stated)
  5, 2, 4.2, -5, 12, 2972, 4
> O=C(CS(=O)(=O)Cc1ccccc1)Nc1nc2c(s1)CCCC2
  12, -2, -1.0, -11, -2, 4774, 3
> N#Cc1ccc(OCC(=O)Nc2cccc(S(=O)(=O)NC3=NCCCCC3)c2)cc1
  2, 0, 0.9, 0, -3, 5175, 7
> Cc1cc(C)c(C)c(S(=O)(=O)N[C@@H](C)C(=O)OCc2cc(=O)n3cc(Br)ccc3n2)c1C
  5, 4, 2.6, -10, 3, 2324, -2
> Cc1nnsc1C(=O)NNC(=O)Nc1ccccc1
  9, 9, 4.6, -20, -1, 4086, -6
> O=C(C[C@H]1C[C@H](C(=O)N2CCOCC2)[C@@]2(CCC3CCCC3)c3[nH]c4ccc(Cl)cc4c3CCN2C1=O)NCCc1ccccn1
  3, /, 2.3, -23, -10, 3586, 0
> CCN1CC2C3C(=O)N(Cc4ccccc4)C(=O)C3[C@](C)(C1=O)N2C(=O)c1ccc(Cl)cc1 (some centres not stated)
  33, /, 8.1, /, 22, /, -1
> COc1cccc(CNC(=O)CSCc2cnn(-c3ccccc3)c2-n2cccc2)c1OC
  15, -8, 5.1, -14, 18, 8519, 14

From PubChem BioAssay
